Bioassay records (PubChem BioAssay)
TRPML1 inh: inhibitors of human TRPML1 channel | Q9GZU1 | TRPML1-inducible cells, Ca2+ dye fluorescence, FDSS; active compounds read low; inhibition of EC80 agonist-evoked calcium signal | activity change, negative = inhibition, % (test concentration not listed) | 0.02% of 390,000 active | AID 624415; in the data active means activity change below about -50%; inconclusive means about -30% to -50%; inactive means above about -30%;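 further: stimulus is agonist 54-4 at its EC80 concentration; on the % scale 0 is the no-effect control and ±100 the full control effect; compound concentration not given in the record; the text of the record puts the active cut at -80%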
Target sequence (Q9GZU1 whole entry, looked up): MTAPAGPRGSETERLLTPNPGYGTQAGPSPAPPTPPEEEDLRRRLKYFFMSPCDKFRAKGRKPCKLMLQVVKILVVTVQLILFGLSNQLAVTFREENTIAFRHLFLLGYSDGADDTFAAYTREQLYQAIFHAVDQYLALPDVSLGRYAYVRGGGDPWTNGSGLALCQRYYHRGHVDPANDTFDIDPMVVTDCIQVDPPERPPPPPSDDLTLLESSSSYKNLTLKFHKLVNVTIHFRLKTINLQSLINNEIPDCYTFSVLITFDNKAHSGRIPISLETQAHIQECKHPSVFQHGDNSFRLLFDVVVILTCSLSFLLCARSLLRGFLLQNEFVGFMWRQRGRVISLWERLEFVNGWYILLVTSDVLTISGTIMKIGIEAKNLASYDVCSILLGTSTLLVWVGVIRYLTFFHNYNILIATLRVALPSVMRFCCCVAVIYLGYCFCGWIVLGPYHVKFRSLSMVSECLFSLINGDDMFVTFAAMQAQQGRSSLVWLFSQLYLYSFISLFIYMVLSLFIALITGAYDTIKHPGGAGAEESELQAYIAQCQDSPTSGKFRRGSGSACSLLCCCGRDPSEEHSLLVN
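TRPML1-DL cells, Tet-induced overnight (~16 h, 37 °C) at 1,500 cells/well, were loaded with Ca8 no-wash dye plus quencher for 45-90 min at room temperature. Compounds were pinned during FDSS kinetic reading; agonist 54-4 at EC80 (4 uM final) then added.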
D2 agonist: activates the human D2 dopamine receptor; P14416; AID 624465; 0.084% of 360,000 active; activation, % (no concentration beside the values); DiscoveRx PathHunter D2 beta-arrestin, luminescence, 90 min; 100% = 57 uM dopamine signal; in the data active = activation above about 40%; inconclusive = about 15% to 40%; inactive = below about 15%; further: compound concentration not given in the record; the text of the record calls up to 30% inactive
Target sequence (P14416 whole entry, looked up): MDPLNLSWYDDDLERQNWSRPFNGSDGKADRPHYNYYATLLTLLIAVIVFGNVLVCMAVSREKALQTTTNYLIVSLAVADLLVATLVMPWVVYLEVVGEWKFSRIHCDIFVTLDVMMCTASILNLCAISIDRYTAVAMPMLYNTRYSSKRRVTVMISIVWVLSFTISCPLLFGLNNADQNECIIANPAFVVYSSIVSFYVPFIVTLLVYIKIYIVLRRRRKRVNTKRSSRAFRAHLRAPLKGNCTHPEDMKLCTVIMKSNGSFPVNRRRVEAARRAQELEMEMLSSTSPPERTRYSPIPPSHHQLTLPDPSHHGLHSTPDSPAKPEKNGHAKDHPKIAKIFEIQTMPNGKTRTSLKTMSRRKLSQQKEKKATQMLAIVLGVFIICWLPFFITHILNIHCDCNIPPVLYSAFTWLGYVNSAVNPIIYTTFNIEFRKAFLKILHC
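Agonist mode: compounds alone added to overnight-plated D2 PathHunter cells for 90 min at 37 C, with 57 uM final dopamine (EC100) defining full response. Beta-arrestin recruitment detected by chemiluminescent reagent, read after 1 h at ambient temperature.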
TRPML1 ag: activates the human TRPML1 channel. AID 624414. 0.12% of 410,000 active. TRPML1-expressing cells, Ca2+ dye fluorescence, FDSS; host cell line not named in the record; reference of the full effect not given here. activation, % (test concentration not listed); in the data active = activation above about 50%; inconclusive = about 30% to 50%; inactive = below about 30%; further: 0% is about no effect; the text of the record puts the active cut at 80%
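TRPML1-DL cells, Tet-induced overnight (~16 h, 37 degrees C), loaded 45-90 min at room temperature with Ca8 no-wash calcium dye plus quencher. FDSS fluorescence: 10 s baseline, compound pin-transfer, 110 s agonist read, then EC80 54-4 (4uM final) and 110 s antagonist read.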
PINK1 expr mod: modulators of PINK1 expression | PINK1 immunofluorescence, high-content cytometry, 24 h | Potency, µM (highest dose often 76.6 µM), for the others: at the highest dose activation (PINK1 increase), most hits filed as activators | 0.2% of 410,000 active; active = well fitted activation curve with a large enough effect; inconclusive = small, poorly fitted or top-dose-only effect; inactive = flat fitted curve, though single readings scatter; cell line not stated here;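 further: potency means the concentration at half of the fitted maximal effect; % of control where 0% means no effect; nearly all actives have a fitted effect of over 65% in size; a mitochondrial uncoupler was the plate control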
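Stable cell line treated 24 h with compounds at 5 concentrations (CCCP controls), then fixed and immunostained for PINK1 plus nuclear and cell stains; PINK1 immunofluorescence quantified by laser-scanning microplate cytometry.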
D2 PAM: positive allosteric modulators of human D2 dopamine receptor | P14416 | DiscoveRx D2 beta-arrestin cells, luminescence, 90 min; 100% = 57 uM dopamine signal | potentiation, % (test concentration not listed) | 0.23% of 360,000 active; active = potentiation of 50% or more; inconclusive = 30% to 50%; inactive = 30% or less;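 further: compound concentration not given in the record; tested on top of an EC20 dose of dopamine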
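D2 cells co-treated with compound plus 50 nM dopamine (EC20) for 90 min at 37 deg C to detect potentiation. Beta-arrestin recruitment was read as enzyme-fragment luminescence after 1 h at ambient temperature. Full response was set by 57 uM dopamine.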
Six1-Eya2 inh: Six1/Eya2 interaction inhibition; Q15475+O00167; AlphaScreen GST-Six1/His-Eya2 binding, biochemical; active compounds read low; control for the full effect not named in the record; activity change, % (no concentration beside the values); 0.56% of 360,000 active; AID 651725; in the data active = activity change below about -65%; inconclusive = about -30% to -65%; inactive = above about -30%; further: on the % scale 0 is the no-effect control and ±100 the full control effect
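Compounds are tested against tagged Six1 and Eya2 proteins bridged by glutathione donor and nickel acceptor beads; after a one-hour incubation at 37 °C without light, AlphaScreen emission is recorded.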
The depositor's hits bear a star; ? = inconclusive; . = not tested or not shown; [ ] = dose if it differs, or a comment.

SMILES	TRPML1 inh	D2 agonist	TRPML1 ag	PINK1 expr mod	D2 PAM	Six1-Eya2 inh
O=C(CCC(=O)N1CCCC(Nc2ccccc2)C1)c1ccc(F)cc1 (stereo unspecified)	2	-2.7	-0.7	2.0%	-8	-24
O=C(CCn1c(=S)[nH]c2cc3c(cc2c1=O)OCO3)NCc1cccc(Cl)c1	22	-5.8	-1.3	6.3%	-6	0
COc1ccc(N2CCN(C(=O)CN=C3NS(=O)(=O)C(c4ccc(C)cc4)=C3C)CC2)cc1	33	0.6	0.6	-1.0%[38.3 µM]	6	-15
C[C@]12c3[nH]c4ccccc4c3CCN1C(=O)C(CC(=O)NCc1cccc(C(F)(F)F)c1)C[C@@H]2C(=O)N1CCCCC1 (stereo partly specified)	23	-2.6	2.2	?	.	-7
COc1ccc(-c2ccnc3nc(Sc4ncc(C(F)(F)F)cc4Cl)nn23)cc1	27	-2.3	3.1	3.1%[38.3 µM]	-15	5
CC(=O)c1c(N2CCN(c3cccc(Cl)c3)CC2)nc(=S)n(-c2ccccc2)c1C	-5	1.0	0.1	-2.1%[38.3 µM]	-13	-1
COc1ccc(CC(=O)OCC(=O)Nc2ccc(C(=O)Nc3ccc(OC)cc3)cc2)cc1	12	5.4	-0.2	1.4%	-7	-3
C#CCOCCOCCOCCNc1nc(N2CCN(C(=O)[C@H](Cc3ccc(O)cc3)n3cc(C(N)CC(C)C)nn3)CC2)nc(N2CCN(C(=O)[C@H](CCC(=O)O)n3cc(C(N)[C@H](C)CC)nn3)CC2)n1 (stereo partly specified)	0	-2.4	0.2	0.6%	-10	-8
COc1ccccc1NC(=O)Cc1noc(CSc2nnc(C)n2C)n1	17	-4.7	-0.4	1.7%	-2	0
CCCCCn1c(=NC(C)=O)c(C#N)cc2c(=O)n3ccccc3nc21	23	-0.3	2.2	-2.5%	-2	9
CC1CC1C(=O)Nc1nc2ccc(Cl)cc2s1 (stereo unspecified)	6	7.1	1.9	0.7%	1	-4
Cc1cc(NC(=O)c2coc(=O)c(Br)c2)ccc1C(C)C	18	2.9	0.2	0.2%	-2	-1
C=CCn1c(-c2ccccc2)nc(=S)c2c1CC(C)(C)OC2	-13	-1.9	-0.1	.	-6	-1
O=C(N/N=C1/C(=O)c2cccc3cccc1c23)c1ccc(Cl)cc1	6	-6.6	-0.1	-0.8%	-15	-16
CCC(C)[C@H](NC(=O)Nc1ccc(S(N)(=O)=O)cc1)C(=O)OC (stereo partly specified)	14	-2.6	0.6	-1.4%	1	5
COc1ccc(-n2c(=O)c3c4c(sc3n(C)c2=O)CN(C(C)=O)CC4)cc1	-7	.	0.3	2.9%	.	.
CC1CCN(CC(=O)NCc2ccco2)CC1	24	-2.7	0.3	3.6%	-3	4
CC(=O)c1ccc(NC(=O)CSc2nnc(C3CC3)n2C)cc1	-2	1.4	-0.3	1.4%	3	24
CC(=O)c1ccc(S(=O)(=O)N2CCC(NC(=O)Nc3cccc(F)c3)CC2)cc1	3	0.7	0.3	0.6%	-1	2
Cc1cccc2nc(COc3ccc4ccccc4c3Br)cn12	24	-0.1	0.1	1.1%	-11	-9

Whole records from above.
Cc1cccc2nc(COc3ccc4ccccc4c3Br)cn12 reads TRPML1 inh: 24; D2 agonist: -0.1; TRPML1 ag: 0.1; PINK1 expr mod: 1.1%; D2 PAM: -11; Six1-Eya2 inh: -9
C[C@]12c3[nH]c4ccccc4c3CCN1C(=O)C(CC(=O)NCc1cccc(C(F)(F)F)c1)C[C@@H]2C(=O)N1CCCCC1 (stereo partly specified) reads TRPML1 inh: 23; D2 agonist: -2.6; TRPML1 ag: 2.2; PINK1 expr mod: ?; D2 PAM: .; Six1-Eya2 inh: -7

The list goes on.
SMILES	TRPML1 inh	D2 agonist	TRPML1 ag	PINK1 expr mod	D2 PAM	Six1-Eya2 inh
COCCn1c(Cc2ccccc2)nnc1SCC(=O)N1CCOCC1	-1	-3.6	1.1	0.4%	-4	12
Cn1c(=O)c2c(nc(SCC(=O)Nc3ccccc3F)n2Cc2ccccc2F)n(C)c1=O	-2	.	2.0	2.7%	.	.
O=C(CCCn1c(=O)oc2ccccc21)Nc1ccccc1	15	-1.4	0.4	1.2%	-3	-4
O=C(Nc1ccccc1N1CCOCC1)c1cc(-c2ccncc2)nc2ccccc12	9	5.0	1.7	1.4%	15	-5
COc1ccc(-c2cc(=O)[nH]c(N3CCN(Cc4ccccc4)CC3)n2)cc1	-1	-0.7	1.1	1.3%	-27	5
COc1ccc(S(=O)(=O)n2cnc3cc(C)c(C)cc32)cc1C	-13	6.0	0.9	.	14	6
CSCCC(NC(=O)c1ccco1)C(=O)N1CCN(C(c2ccccc2)c2ccccc2)CC1 (stereo unspecified)	4	-1.3	3.1	6.0%	-8	-9
CSCCC(NS(=O)(=O)c1ccc(C)cc1)C(=O)N1CCCC1 (stereo unspecified)	43	-2.4	-0.4	-0.7%	-7	0
Cc1ccc(C)c(S(=O)(=O)c2nnn3c2nc(N2CCN(C)CC2)c2sccc23)c1	21	.	0.3	1.2%	.	.
CNC(=O)Cc1nc2ccccc2n1CC(=O)Nc1cc(C)cc(C)c1	6	-3.1	-0.1	0.5%	-4	-1
O=C(NC1CCCCC1)C1c2ccccc2OCC(=O)N1CCc1ccccc1 (stereo unspecified)	.	.	-0.7	0.6%	.	2
CCC(C)NC(=O)Cn1c(=O)ccc2cc(S(=O)(=O)N3CCCC3)ccc21 (stereo unspecified)	26	.	0.0	-5.5%	.	.
COc1cc(OC)cc(C(=O)NC2CCN(CCCOc3ccccc3)CC2)c1	4	-4.6	0.3	-0.3%	-5	-1
O=C(CC1C(=O)NCCN1Cc1cccc(C(F)(F)F)c1)NC1CCOCC1 (stereo unspecified)	?	-3.4	0.6	-0.2%	4	4
Cc1ccc(SCC(=O)NC2CCS(=O)(=O)C2)cc1C (stereo unspecified)	10	0.1	0.6	-1.3%	-12	6
O=C(Nc1ccccc1F)C1C2C=CC3(O2)C1C(=O)N(c1cccnc1)C3C(=O)NC1CCCCC1 (stereo unspecified)	-2	0.0	-0.5	0.7%	4	4
COc1ccc(-c2n(Cc3ccccc3)c3ccccc3[n+]2Cc2ccccc2)cc1	79	-6.1	4.6	11µM*	-5	-5
O=C(CSc1nnc(-c2ccncc2)o1)NC1CCCCC1	3	2.6	0.3	-1.0%	-18	2
O=C1CC(c2cccs2)c2cc3c(cc2N1)OCO3 (stereo unspecified)	9	-1.6	-0.4	12%[38.3 µM]	-4	-4
CC1CCCCN1C(=O)CSc1nc(-c2ccccc2)no1 (stereo unspecified)	4	.	2.8	0.4%	.	.
Cn1cc(S(=O)(=O)NCc2ccc(F)cc2)c(=O)n(C)c1=O	-10	-4.2	0.0	-0.1%	-43	-11
COc1ccccc1Cc1nc2ccccc2n1S(=O)(=O)c1ccc(Cl)cc1	32	-0.9	-0.1	3.3%	-14	-21
Cn1c(=O)c2cc(C(=O)NCCCN3CCN(c4cccc(Cl)c4)CC3)sc2c2ccccc21	39	.	-0.3	-1.9%	.	.
Cc1nn(CC(=O)NNC(=O)c2cccc(Br)c2)c(C)c1[N+](=O)[O-]	-3	-2.2	0.1	-2.3%	6	7
Cc1cccc(C)c1NC(=O)CN(C)C(=O)c1cc(S(=O)(=O)N(C)C)ccc1N1CCCC1	2	-3.8	0.0	1.3%	15	11
Cc1cccc(C)c1NC(=O)CNC(=O)C(C)N1CCCCC1 (stereo unspecified)	-2	-2.5	0.7	0.0%	-6	7
CN1C(=O)CSc2ccc(NC(=O)Nc3ccccn3)cc21	24	-0.4	1.4	-1.9%[38.3 µM]	0	-2
COc1ccc(N(C(=O)c2snc(C(N)=O)c2N)C(C(=O)NC2CCCC2)c2cc(OC)ccc2OC)cc1 (stereo unspecified)	-18	-6.3	0.0	2.3%	-7	-6
COc1ccc(NC(=O)CN(C)C(=O)c2oc3ccccc3c2C)cc1	1	-1.5	1.3	0.6%	-3	-1
Cc1ccc(OCCC(=O)OCC(=O)Nc2ccc(N3CCOCC3)cc2)cc1	18	-2.4	-0.1	-0.4%	9	-4
c1ccc2c3c([nH]c2c1)-c1[nH]ncc1CC3	33	-1.1	1.4	-6.8%[38.3 µM]	-5	-8
Brc1ccc(-c2csc(N3CCC(c4ccccc4)C3)n2)cc1 (stereo unspecified)	39	-1.6	0.6	4.4%[38.3 µM]	0	4
O=C(Nc1ccc(Br)cn1)c1ccc(Cl)s1	5	-1.1	0.2	5.6%	-4	-3
C1CCCCCC(NCCN2CCNCC2)CCCCC1	-1	-1.8	-0.3	-2.3%	-7	-12
CC(O)(c1cccc(F)c1)c1nc(-c2cc3ccccc3o2)cs1 (stereo unspecified)	.	1.7	-0.3	6.0%	-9	7
CC(C)C(=O)Nc1ccc(S(=O)(=O)N2CCC(c3nc4ccccc4[nH]3)CC2)cc1	6	0.3	0.1	0.8%	8	-13
CC1(C)CCCC2=C1CC1C(=O)N(N)C(=O)C1C2 (stereo unspecified)	29	-3.9	1.3	-0.7%	-6	-5
C/C(=N\NC(=O)c1cccc(Cl)c1)c1cccc(NC(=O)C(C)C)c1	6	-3.9	-0.7	6.0%	-8	2
Cc1cccc(C(=O)OCC(=O)N2CC(=O)Nc3ccccc32)c1C	3	-2.0	-0.3	-0.7%	-24	18
COc1ccc(-c2nn(-c3ccccc3)cc2C(=O)N(C)CC(=O)Nc2ccc(N3CCOCC3)cc2)cc1	21	-2.5	0.1	?	14	-4
N/C(=N\OC(=O)c1cccs1)c1ccccc1	0	11	0.2	-0.4%	?	6
O=C(COC(=O)C1CCCCC1)Nc1cccc(F)c1	-6	4.8	-1.3	10%	-3	0
CC(C)(C)c1csc(NC(=O)C2=COCCO2)n1	11	0.5	-0.2	2.2%	4	5
Cc1nc(N(C)C2CCCCC2)c2nnn(Cc3ccc(F)cc3)c2n1	1	-1.2	0.2	?	2	5
CN(C)c1ccc([N+](=O)[O-])cc1C(=O)NCC(c1ccco1)N(C)C (stereo unspecified)	-3	-2.8	0.0	0.0%	-14	-1
COc1ccc2c(c1)CC/C(=C\c1ccc(OC)c(Cn3cccn3)c1)C2=O	51	2.4	6.5	-3.3%	-1	-7
O=C(NNc1ccccc1)Nc1cc(Cl)ccc1Cl	6	2.3	-0.1	7.6%	11	-7
COc1cccc(OCC(O)CN(CCO)Cc2ccccc2)c1 (stereo unspecified)	7	-1.8	-0.1	0.2%	-42	-8
O=C(COC(=O)CNC(=O)c1ccccc1)Nc1nc(-c2ccccc2)cs1	-12	4.3	1.2	2.9%	-1	16
COc1cccc(NC(=O)CSc2nc3ccc(NC(=O)c4cccs4)cc3s2)c1	3	.	0.1	0.7%	.	.

Limited to TRPML1 ag, Six1-Eya2 inh and D2 PAM, for some of the entries so far:
SMILES | TRPML1 ag | Six1-Eya2 inh | D2 PAM
O=C(NNc1ccccc1)Nc1cc(Cl)ccc1Cl | -0.1 | -7 | 11
COc1cccc(OCC(O)CN(CCO)Cc2ccccc2)c1 (stereo unspecified) | -0.1 | -8 | -42
O=C(COC(=O)CNC(=O)c1ccccc1)Nc1nc(-c2ccccc2)cs1 | 1.2 | 16 | -1

Random draw from the library. Share with any hit: about 1%.
